Screens as filed in PubChem.
HSD17B inh: qHTS Assay for Inhibitors of HSD17B4, hydroxysteroid (17-beta) dehydrogenase 4 | Potency, µM (titrated, usually from 57.1 µM), for inactives: at the top dose activity change, negative = inhibition, usual class: inhibitors | AID 893, 2007 | 75,000 tested, 7.6% active | 3-hydroxyacyl-CoA dehydrogenase type-2 (Homo sapiens), Q99714 | recombinant HSD17B10, NADH fluorescence kinetic; many of its hits are not listed in these tables; active = well fitted inhibition curve with a large enough effect; inconclusive = small, poorly fitted or top-dose-only effect; inactive = no such curve, though single readings can be large or run the other way;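 also: the protocol describes HADH2 (HSD17B10) and not the HSD17B4 of the title; nearly all actives have a fitted effect of over 70% in size; most hits overshoot -100% by far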
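His-tagged E. coli-expressed HADH2 at 20 nM in 100 mM Tris-HCl pH 9.0 with 0.01 % Tween-20, preincubated 15 min with compound at room temperature. Reaction with 1 mM NAD+ and 90 uM beta-hydroxybutyryl coenzyme A; NADH fluorescence (360/450 nm) read kinetically over 4 min, last minus first point.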
Starred values were filed as active, the others as inactive; ? = inconclusive; [ ] = dose if it differs, or a comment. % is scaled to controls: 0 for no effect and ±100 for the full control effect; potency is read from the fitted curve at half-maximal effect. Not all compounds are listed. The share of hits here may be higher or lower than overall.

SMILES	HSD17B inh
C/C(N)=N\S(=O)(=O)c1ccc(Cl)cc1	-1%
CC(CCc1ccco1)NC(=O)Cn1ncc2c1-c1ccccc1OC2 (stereo unspecified)	-2%
Clc1ccc(-n2nnnc2SCc2c(-c3ccccc3)nc3sccn23)cc1	-10%
CC(=O)OC[C@@H]1O[C@H](CCO/N=C\[C@@H](C)[C@H](OCc2ccccc2)C(C)C)C=C[C@@H]1OC(C)=O	1%[11.4 µM]
Cn1c(CC2C(=O)Nc3ccc(Br)cc32)nc2ccccc2c1=O (stereo unspecified)	12%
Clc1ccccc1NN(Cc1ccncc1)c1ccccc1Cl	6%[11.4 µM]
CNC(=O)[C@@H]1O[C@@H](n2cnc3c(N)ncnc32)[C@@H](O)[C@H]1O	-3%
CC(C)N1C(=O)C2C(c3ccccc3O)NC(C)(C(=O)O)C2C1=O (stereo unspecified)	8%
O=C(Cc1ccccc1)N1CCCC1c1ccccc1 (stereo unspecified)	-3%
CCOC(=O)CSc1nnc([C@H](C)NC(=O)OC(C)(C)C)o1	-2%
CCOC(=O)c1cc(=O)n2nc(-c3ccc(C)cc3)nc2s1	-11%
O/N=C1/CCc2nonc2/C1=N/O	0%
COc1cc(O)c2c(=O)cc(-c3ccccc3)oc2c1	23%
COc1ccc(-c2cc(C(F)(F)F)n3nc(C(=O)O)cc3n2)cc1OC	-7%
COC(=O)c1sc(NC(=O)CSc2nnc(C(C)C)n2C)nc1C	-17%

Looked up above:
Result of `COC(=O)c1sc(NC(=O)CSc2nnc(C(C)C)n2C)nc1C` in HSD17B inh: -17%
Result of `C/C(N)=N\S(=O)(=O)c1ccc(Cl)cc1` in HSD17B inh: -1%

Additional compounds
SMILES	HSD17B inh
CCOC(=O)N1CCN(S(=O)(=O)c2ccc3c(c2)CCN3C(=O)C2CC2)CC1	-9%
CCCCCn1c(=S)[nH]c2ncccc2c1=O	4%
CCOC(=O)Nc1sc(=S)n(C)c1C	-2%
CCC1CCCCN1C(=O)CSc1nnc(CNC(=O)c2cc(OC)c(OC)c(OC)c2)o1 (stereo unspecified)	6%
COc1cc(-c2nnc(SCc3cccnc3)n2C)cc(OC)c1O	-28%
CC(NC(=O)c1cncc(Br)c1)c1ccc(S(N)(=O)=O)cc1 (stereo unspecified)	-14%
CCOC(=O)c1c(NC(=O)c2cc(C3CC3)on2)sc2c1CCCC2	?
COc1ccccc1OCc1ccc(C(=O)NCc2ccco2)o1	-23%
Cc1ccccc1NC(=O)c1ccccc1NC(=O)c1ccco1	-3%
COCCn1c(=S)[nH]c2ncccc2c1=O	-1%
CN(C)CCCOC(=O)c1cc2ccccc2o1	-27%
CCCCn1nnc(NC(=O)c2ccc(-c3ccccc3)cc2)n1	5%
COc1ccc(NC(=O)N2c3ccccc3CC2C)cc1OC (stereo unspecified)	7%
Nc1nc(SCc2ccccc2Cl)cc(C(=O)O)n1	3%[11.4 µM]
CCOC(=O)C1CCN(C(=O)c2ccccc2Oc2ccccc2)CC1	-5%
Cc1oc(-c2ccccc2F)nc1CN1CCC(C(=O)NCc2ccco2)CC1	5%
COc1cc(OC)c(S(=O)(=O)N2CCCCC2)cc1S(=O)(=O)N1CCCCC1	-10%
COc1ccc(OC)c(C2CC(=O)N3CN(c4cccc(Cl)c4C)CSC3=C2C#N)c1 (stereo unspecified)	32µM*
Cc1onc(-c2ccccc2)c1C(=O)Nc1ccncc1	3%
COCCCNC(=O)CS(=O)(=O)Cc1nc(-c2cccc(OC)c2)oc1C	0%
O=C(C1=COCCO1)N1CCN(C(c2ccccc2)c2ccccc2)CC1	-7%
Cc1ccc(S(=O)(=O)CCc2nnc(NC(=O)c3cnccn3)s2)cc1	10%
O=C(CSc1ncn[nH]1)OCN1C(=O)c2ccccc2C1=O	1%
CCn1c(COc2ccccc2C)nnc1SCC(=O)OC	7%
Nc1ncnc2c1ncn2[C@H]1CC[C@@H](CO)O1	-10%
O=C1C(c2ccncc2)=C(O)c2ccccc21	?
O=C(C1CCN(S(=O)(=O)Cc2ccccc2)CC1)N1CCCc2ccccc21	5%
O=C(CSc1nnc(-c2ccccc2)o1)n1c2c(c3ccccc31)CCCC2	7%
COc1ccc(C(=O)Nc2ccccc2C(N)=O)cc1	8%
Cc1c(NC(=O)C(C)N2C(=O)C3C4C=CC(C4)C3C2=O)c(=O)n(-c2ccccc2)n1C (stereo unspecified)	-2%
COc1ccc(CNC(=O)c2c(O)c3cccc4c3n(c2=O)CCC4)cc1	-3%
COc1cc(OC)cc(C(=O)Nc2ncc3c(n2)CC(C)(C)CC3=O)c1	15%
COC(=O)COc1cc(C)cc2oc(=O)c(CC(=O)OC)c(C)c12	25µM*
Cc1cccc(C(=O)Nc2ccccc2C(=O)OCc2c(C)noc2C)c1	?
CCOC(=O)C1CCCN(c2c(Nc3ccc(C)c(C)c3)c(=O)c2=O)C1 (stereo unspecified)	-12%
N[C@@H](Cc1ccccc1)c1nnc(SCc2ccccc2F)o1	-1%
O=C(Cc1c[nH]c2ccccc12)NCc1ccc2c(c1)OCO2	8%
Cc1cc(C)nc(-n2nc(C)c3c(C(F)F)cc(C)nc32)n1	-11%
COc1ccccc1CC(=O)NCC1CCCO1 (stereo unspecified)	-5%
CCOC(=O)Cc1csc(NC(=O)C2CCCN(S(=O)(=O)c3cnc[nH]3)C2)n1 (stereo unspecified)	7%
CN(C)c1ccc(CNCCC2(O)CCOC(C)(C)C2)cc1 (stereo unspecified)	-4%
Cc1ccc(S(=O)(=O)N2CCC(C(=O)NCCCN3CCCCCC3)CC2)cc1	-9%
Cc1cc(NC(=O)c2ocnc2C)no1	10%
O=c1[nH]n(-c2ccccn2)c(=O)c2ccccc12	4%
O=C(O)CCCC(=O)Nc1ccc(N2CCCC2)cc1	1%

Some of the entries so far, comma-delimited:
Structure,HSD17B inh
Cc1cccc(C(=O)Nc2ccccc2C(=O)OCc2c(C)noc2C)c1,?
CCOC(=O)C1CCCN(c2c(Nc3ccc(C)c(C)c3)c(=O)c2=O)C1 (stereo unspecified),-12%
N[C@@H](Cc1ccccc1)c1nnc(SCc2ccccc2F)o1,-1%
O=C(Cc1c[nH]c2ccccc12)NCc1ccc2c(c1)OCO2,8%
Cc1cc(C)nc(-n2nc(C)c3c(C(F)F)cc(C)nc32)n1,-11%
COc1ccccc1CC(=O)NCC1CCCO1 (stereo unspecified),-5%

The results go on:
SMILES	HSD17B inh
CCOC(=O)c1c(NC(=O)c2ccco2)sc2c1CCCCC2	32µM*
CCOc1ccccc1NC(=O)N1CCCC(c2nc3c(nnn3Cc3ccc(C)cc3)c(=O)[nH]2)C1 (stereo unspecified)	5%
COCCN(C(=O)Cn1nnc2ccccc21)C(C(=O)NC1CCCC1)c1cc(OC)ccc1OC (stereo unspecified)	1%
Cc1cc(C)c2c(CC(=O)Nc3ccc(Cl)cn3)coc2c1	4%
Cn1c(NCc2ccccc2)cc(=O)n(C)c1=O	13%
COc1ccccc1NC(=O)COc1cccc(-n2cnnn2)c1	3%
O=C(c1cc2ccccc2o1)N1CCCCCC1	-6%
CC1CCC2C(=O)N3C(CCC(C)[C@@H]3c3ccc(Br)cc3)C(=O)N2C1c1ccc(Br)cc1 (stereo partly specified)	3%[11.4 µM]
Cc1cc2c(nc1C)CCCCN2C[C@H](C)O/N=C\[C@@H](C)[C@H](OCc1ccccc1)C(C)C	-2%[11.4 µM]
CCc1ccc(C2CC(c3ccc(F)cc3)Nc3nc(N)nn32)cc1 (stereo unspecified)	-4%
O=C(CCCc1ccccc1)NCc1cn2ccsc2n1	-3%
CCOC(=O)C1CCN(S(=O)(=O)c2cc(Br)cc3c2N(C(=O)C2CC2)CC3)CC1	1%
Cc1ccc(C)c(S(=O)(=O)n2cnc3ccccc32)c1	-2%
Cc1ccc(NCc2nnc(SCC(=O)Nc3ncc(C)s3)n2Cc2ccco2)c(C)c1	-8%
Nc1nc(N2CCN(C/C=C/c3ccccc3)CC2)nc2ccccc12	1%
Cc1ccc(NC2=NC(C(=O)Nc3ccc(C)c(C)c3)CC(=O)N2)cc1 (stereo unspecified)	9%
Cn1c(Cn2c(=O)sc3ccccc32)nnc1SCC(=O)NC1CCCC1	5%
COC(=O)C1=C(C)n2nnnc2NC1c1ccc(Cl)cc1 (stereo unspecified)	7%
O=C(CSc1nc(-c2ccco2)cc(C(F)(F)F)n1)N1CCN(Cc2ccccc2)CC1	0%
O=C(Nc1c(Cl)cc(Cl)cc1C(=O)NCC1CCCO1)c1ccco1 (stereo unspecified)	2%
C=C(C)Cn1c(N(CCO)Cc2ccccc2)nc2c1c(=O)[nH]c(=O)n2C	7%
O=C(CCc1nc2ccccc2s1)OCC(=O)N1CCN(C(=O)c2ccco2)CC1	1%
O=C(NCCCN1CCN(Cc2ccccc2Cl)CC1)Nc1ccccc1	-4%
C=CCNc1nc(-c2sc(NC(=O)CC)nc2C)cs1	?
COc1cc2c(cc1OC)C(c1cccnc1)CC(=O)N2 (stereo unspecified)	9%
Cc1nc(S(=O)(=O)N(C)c2ccccc2)c(C#N)c(C)c1Cl	1%
COc1cc(OC)c(C2CC(=O)N3CN(c4ccccc4C)CSC3=C2C#N)cc1OC (stereo unspecified)	25µM*
COC(=O)c1cccc(C23CC4(C2)[C@H](CN(C)[C@@H]4c2ccccc2)C3c2ccc(Cl)nc2)c1 (stereo partly specified)	-1%
CS(=O)(=O)N1CCC2(CCN(C(=O)Nc3cccc(F)c3)CC2)CC1	-2%
Cc1cc(C)cc(OCc2nnc(SCC(=O)c3ccccc3)o2)c1	-21%

Already shown: entries from further up.
SMILES	HSD17B inh
CS(=O)(=O)N1CCC2(CCN(C(=O)Nc3cccc(F)c3)CC2)CC1	-2%
Cc1cc(C)cc(OCc2nnc(SCC(=O)c3ccccc3)o2)c1	-21%

Carrying on.
SMILES	HSD17B inh
Cc1nc(COC(=O)c2ccc(CO)cc2)cs1	3%
CCS(=O)(=O)N1Cc2ccccc2CC1C(=O)N1CCN(c2ccccc2)CC1 (stereo unspecified)	-22%
CCCCOc1ccccc1C1NC(=O)NC(C)=C1C(=O)OCCOC (stereo unspecified)	8%
CCOc1ccc2c(c1)c1nnc(SCC(=O)N3CCC(C)CC3)nc1n2C	-5%
Cc1c2c(nc3nc4ccccc4n13)CCCC2=O	0%
Cc1csc(SCCN2C(=O)c3ccccc3C2=O)n1	-1%
COc1cccc2[nH]c3c(N4CCCC(C)C4)ncnc3c12 (stereo unspecified)	20µM*
COC(=O)[C@H](Cc1ccccc1)NC(=O)[C@]1(C)C[C@H]1[C@H](NC(=O)OCc1ccccc1)c1ccccc1	2%
CC(=O)N1CCc2cc(S(=O)(=O)CCC(=O)NCc3cccs3)ccc21	7%
COc1ccc(-n2c(=O)cnc3cnc(Oc4ccccc4)nc32)cc1	6%
O=C(NCc1ccco1)c1noc2c1CCCC2	-6%
N[C@@H](Cc1ccc(O)c(I)c1)C(=O)O	-6%
Cc1cc(=O)oc2cc(OCC(=O)NCCCN3CCOCC3)ccc12	25µM*
COc1cc(C(=O)Oc2ccccc2)ccc1OCc1c(C)noc1C	-2%
N=C1C(c2ccccc2)=C(O)CN1c1ccc2c(c1)OCO2	14%
O=C(CN1C(=O)c2ccccc2S1(=O)=O)NCCSC1CCCCC1	?
CCCCOCP(=O)(CCCC)COCCCC	9%
CCn1c(SCC(=O)n2nc(C)cc2C)nnc1-c1ccc2c(c1)OCO2	3%
OCC(CO)(CO)N=Cc1cc(Br)ccc1O	0%
Cc1ccc(N2CC(C(=O)NCc3cccs3)CC2=O)cc1 (stereo unspecified)	0%
COc1ccccc1NC(=O)N1CCn2c(nc3ccccc32)C1	7%
Cc1ccsc1/C=c1\sc2ncnn2c1=O	8%
CCC(=O)N1CCN(c2nc(C)nc3sc(C)c(C)c23)CC1	22%
CCOC(=O)c1c(NC(C)=O)no[n+]1[O-]	-8%
CCOC(=O)CCCNC(=O)COC(=O)c1cc(C)cc(C)c1	-1%
Cc1noc(C)c1C(=O)N1CCC2(CCCN(c3ccncc3)C2)CC1	-1%
COc1ccccc1C(=O)NCCN1CCN(C(=O)c2ccccc2OC)CC1	-1%
Cc1ccccc1-c1noc(-c2ccc(O)cc2)n1	-8%
O=C1CCc2cc(S(=O)(=O)N3CCC(C(=O)Nc4nccs4)CC3)ccc2N1	5%
O=C1c2ccccc2C(=O)N1CCCn1nnc(-c2ccc(N3CCOCC3)cc2)n1	-3%
Cc1ccc(CCNC(=O)C2CCCN(S(=O)(=O)c3cccc4nsnc34)C2)cc1 (stereo unspecified)	25µM*
CC(=O)c1cccc(NC(=O)Nc2cccnc2)c1	6%
O=S(=O)(c1ccc(-c2cn3ccccc3n2)cc1)N1CCOCC1	32µM*
C=CCN(C(=O)c1ccccc1)c1ccc(OC)cc1	-1%
CCOc1cc(C(=O)N2CCN(c3ccccc3)CC2)cc(OCC)c1OCC	1%
CC1CCCC(NC(=O)CN(C)S(=O)(=O)c2cccc3cccnc23)C1C (stereo unspecified)	2%
CC(C)OC(=O)CSc1nnc(Cc2ccccc2)n1C	5%
N=c1c2c3c(sc2ncn1CCN1CCOCC1)CCCCC3	2%
CN(CC(=O)N1CCCCCC1)S(=O)(=O)c1cccc2cccnc12	7%
CC(=O)OCC1OC(C#Cc2ccc(C)cc2C)C=CC1OC(C)=O (stereo unspecified)	-12%[11.4 µM]
O=C(CSCc1cccc(Br)c1)N1CCOCC1	2%
CNc1cc(NS(=O)(=O)c2ccc(N)cc2)nc(NC)n1	-14%
COc1ccc(NC(=O)c2ccc(-c3ccc(-c4noc(C)n4)cc3C)cc2)cc1OCCN(C)C	?
CC1CCN(C(=O)CCCOc2cc(=O)n(C)c3ccccc23)CC1	4%
O=C(NCc1ccccc1)c1ccc(Cc2nc3ccccc3[nH]2)cc1	5%
CCc1nc(NCc2ccco2)c2oc3ccccc3c2n1	55%[activator]
